# Screens deposited in PubChem BioAssay by National Center for Advancing Translational Sciences (NCATS).
# D2 agonist = activates the human D2 dopamine receptor; P14416; DiscoveRx PathHunter D2 beta-arrestin, luminescence, 90 min; 100% = 57 uM dopamine signal; activation, % (no concentration beside the values); 360,000 compounds, 0.084% hits; AID 624465; in the data active = activation above about 40%; inconclusive = about 15% to 40%; inactive = below about 15%; also: compound concentration not given in the record; the text of the record calls up to 30% inactive
# Target sequence (P14416 whole entry, looked up): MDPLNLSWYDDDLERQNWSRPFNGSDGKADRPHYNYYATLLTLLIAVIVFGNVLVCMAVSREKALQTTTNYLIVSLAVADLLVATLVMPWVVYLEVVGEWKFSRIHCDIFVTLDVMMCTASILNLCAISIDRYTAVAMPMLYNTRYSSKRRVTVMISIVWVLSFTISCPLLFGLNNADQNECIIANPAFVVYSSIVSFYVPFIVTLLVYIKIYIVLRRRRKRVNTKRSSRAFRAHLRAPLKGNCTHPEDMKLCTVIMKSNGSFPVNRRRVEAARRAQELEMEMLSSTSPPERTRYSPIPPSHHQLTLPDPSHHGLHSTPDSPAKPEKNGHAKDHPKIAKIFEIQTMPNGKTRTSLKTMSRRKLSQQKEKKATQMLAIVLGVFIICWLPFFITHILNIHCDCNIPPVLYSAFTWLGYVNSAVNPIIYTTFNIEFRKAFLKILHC
#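 DiscoveRx PathHunter D2 beta-arrestin cells (2,100/well) attached overnight, then compound-stimulated 90 min at 37 C in HBSS/10 mM HEPES/0.1% Tween-20 buffer; beta-galactosidase complementation read by luminescence after 1 h at ambient temperature. Dopamine 57 uM final (EC100) as control.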
# TRPML1 agonist = human mucolipin-1 channel agonism; Q9GZU1; TRPML1-expressing cells, Ca2+ dye fluorescence, FDSS; host cell line not named in the record; reference of the full effect not given here; activation, % (concentration not given with the values); 410,000 compounds, 0.12% hits; in the data active = activation above about 50%; inconclusive = about 30% to 50%; inactive = below about 30%; also: 0% is about no effect; the text of the record puts the active cut at 80%
# Target sequence (Q9GZU1 whole entry, looked up): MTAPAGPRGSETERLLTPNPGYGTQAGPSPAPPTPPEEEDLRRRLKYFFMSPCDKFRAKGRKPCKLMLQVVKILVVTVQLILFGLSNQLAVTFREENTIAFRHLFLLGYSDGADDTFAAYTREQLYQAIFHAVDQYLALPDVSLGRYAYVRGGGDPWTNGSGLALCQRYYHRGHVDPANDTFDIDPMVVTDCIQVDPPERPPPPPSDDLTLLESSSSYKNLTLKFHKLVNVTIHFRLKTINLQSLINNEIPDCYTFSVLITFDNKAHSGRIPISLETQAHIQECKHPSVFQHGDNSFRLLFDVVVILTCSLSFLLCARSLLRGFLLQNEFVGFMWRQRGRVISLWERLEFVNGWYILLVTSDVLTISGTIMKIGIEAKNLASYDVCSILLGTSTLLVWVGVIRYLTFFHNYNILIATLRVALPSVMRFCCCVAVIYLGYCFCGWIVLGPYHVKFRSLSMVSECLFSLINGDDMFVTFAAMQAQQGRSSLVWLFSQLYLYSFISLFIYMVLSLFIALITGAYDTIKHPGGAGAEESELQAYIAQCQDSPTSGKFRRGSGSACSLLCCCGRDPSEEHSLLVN
#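 Calcium fluorescence on an FDSS kinetic reader gave the read-out. Tet-induced TRPML1-DL cells were plated overnight, dye-loaded (Ca8 with quencher, 45-90 min, room temperature, dark), then read 110 s after compound addition, and again 110 s after 4uM final 54-4 (EC80).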
# Six1-Eya2 blk = Six1/Eya2 interaction inhibition; AID 651725; activity change, % (concentration not given with the values); 360,000 compounds, 0.56% hits; AlphaScreen GST-Six1/His-Eya2 binding, biochemical; hits give low values; control for the full effect not named in the record; Q15475+O00167; in the data active = activity change below about -65%; inconclusive = about -30% to -65%; inactive = above about -30%; also: % is scaled to controls: 0 for no effect and ±100 for the full control effect
#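 Homogeneous AlphaScreen proximity assay pairing GST-Six1 with His-tagged Eya2 (added as 5X mix: 250 nM and 500 nM) in 50 mM Tris pH 8.0, 300 mM NaCl, 1 mM TCEP. Glutathione donor and nickel acceptor beads; 1 h, 37 °C, dark.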
# TRPML1 blocker = blocks the human TRPML1 channel | AID 624415 | Q9GZU1 | TRPML1-inducible cells, Ca2+ dye fluorescence, FDSS; hits give low values; inhibition of EC80 agonist-evoked calcium signal | activity change, negative = inhibition, % (concentration not given with the values) | 390,000 compounds, 0.02% hits; in the data active means activity change below about -50%; inconclusive means about -30% to -50%; inactive means above about -30%;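 also: stimulus is agonist 54-4 at its EC80 concentration; % is scaled to controls: 0 for no effect and ±100 for the full control effect; the text of the record puts the active cut at -80%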
#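 TRPML1-DL cells, Tet-induced overnight (~16 h, 37 °C) at 1,500 cells/well, were loaded with Ca8 no-wash dye plus quencher for 45-90 min at room temperature. Compounds were pinned during FDSS kinetic reading; agonist 54-4 at EC80 (4 uM final) then added.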
# D2 potentiator = positive allosteric modulators of human D2 dopamine receptor. DiscoveRx D2 beta-arrestin cells, luminescence, 90 min; 100% = 57 uM dopamine signal. potentiation, % (test concentration not listed). 360,000 compounds, 0.23% hits; active = potentiation of 50% or more; inconclusive = 30% to 50%; inactive = 30% or less;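 also: compound concentration not given in the record; tested on top of an EC20 dose of dopamine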
#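 PathHunter beta-arrestin assay in DiscoveRx D2 cells. Compounds were added with an EC20 of dopamine (50 nM final) for 90 min at 37 deg C. Luminescence was read 1 h after detection reagent, with 57 uM dopamine as the EC100 control.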
# PINK1 modulator = changes PINK1 expression; PINK1 immunofluorescence, high-content cytometry, 24 h; AID 624263; 410,000 compounds, 0.2% hits; Potency, µM (doses to about 76.6 µM), inactives show at the top dose activation (PINK1 increase), hits mostly activators; active = well fitted activation curve with a large enough effect; inconclusive = small, poorly fitted or top-dose-only effect; inactive = flat fitted curve, though single readings scatter; cell line not stated here;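 also: potency is read from the fitted curve at half-maximal effect; % of control where 0% means no effect; nearly all actives have a fitted effect of over 65% in size; a mitochondrial uncoupler was the plate control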
#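 PINK1 protein, normally rapidly degraded, was detected by immunofluorescence after 24 hour compound treatment of a stable cell line. Titration data (5 concentrations) came from laser-scanning cytometry, with CCCP-treated wells as controls.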
# * hit, by the source's call; u = inconclusive; x = no result given; & = joins results of further samples; [ ] = dose if it differs, or a comment. Not a hit list. Share with any hit: about 1%.
# A first look (2 entries):
smiles	TRPML1 blocker	PINK1 modulator	Six1-Eya2 blk	D2 potentiator	TRPML1 agonist	D2 agonist
O=C(CCC1CCCCC1)Nc1ncn[nH]1	22	-1.6%	-7	2	0.5	-2.0
Cc1cc(C)c2oc(C(=O)Nc3ccc(S(=O)(=O)Nc4nccs4)cc3)cc(=O)c2c1	5	-0.3%	-17	-6	0.5	2.8

# The whole of this part, from the start:
smiles	TRPML1 blocker	PINK1 modulator	Six1-Eya2 blk	D2 potentiator	TRPML1 agonist	D2 agonist
O=C(CCC1CCCCC1)Nc1ncn[nH]1	22	-1.6%	-7	2	0.5	-2.0
Cc1cc(C)c2oc(C(=O)Nc3ccc(S(=O)(=O)Nc4nccs4)cc3)cc(=O)c2c1	5	-0.3%	-17	-6	0.5	2.8
Cn1c(SCc2ccc(Br)cc2)nnc1-c1ccccn1	10	-0.5%	-6	-4	2.7	-0.7
O=C(Nc1nc(-c2cccnc2)cs1)c1ccccc1F	10	1.6%	1	-9	0.1	-6.5
COc1cccc(N2CC(NC(=O)c3cc(Cl)ccc3OC)CC2=O)c1 (configuration not stated)	21	-1.0%	x	x	-0.8	x
CN(C)c1ccc(C(C#N)c2ccccc2)nn1 (configuration not stated)	26	-1.0%	42	-5	2.5	-0.7
CC(=O)N1CCCC(C)(C(=O)N(C)Cc2cccc3ccccc23)C1 (configuration not stated)	x	2.9%	-2	-7	-1.0	-4.7
O=c1[nH]c(=O)n(Cc2ccco2)c2c1C(C(F)(F)F)(C(F)(F)F)N=C(CCC1CCCCC1)N2	12	x	-2	-7	0.3	-0.8
CC(=O)c1ccc(NC(=O)CSC(C)C)cc1	25	-1.3%[38.3 µM]	-14	4	-0.4	-3.6
COc1ccc(CCNC(=O)CSc2nc3[nH]ncc3c(=O)n2-c2ccc(Cl)cc2Cl)cc1OC	-12	-1.2%	-8	u	3.5	15
CCN(CC(=O)Nc1ccccc1OC)C(=O)COc1ccc(C#N)cc1	-6	-1.9%	4	4	0.7	-4.1
COc1ccc(C2=NS(=O)(=O)N(C)C(C(=O)NC3CCCCC3)=C2)cc1OC	3	-0.2%	0	-3	0.4	6.8
O=C1NC(=O)C(=Cc2ccccc2[N+](=O)[O-])S1	15	-2.7%	-11	-13	-0.4	-5.7
Cc1ccc(N2CCN(C3=NC(=O)/C(=C\c4cn[nH]c4-c4ccccc4)S3)CC2)cc1	19	12%	u	1	0.6	3.5
COc1cccc(C(=O)COc2ccccc2N2C(=O)C3C4C=CC(C4)C3C2=O)c1 (configuration not stated)	44	-0.9%	4	5	-0.7	-1.6
COc1ccc(NC(=O)CSc2cn(CC(=O)N3CCCCC3)c3ccccc23)c(OC)c1	6	1.5%	x	x	1.2	x
COC(=O)c1ccccc1-c1ccc(/C=N/Nc2nc(N3CCCC3)nc(N3CCCC3)n2)o1	1	3.8%	1	-26	1.2	0.8
Cc1c(NC(=O)c2cccc(NC(=O)Cc3ccccc3Cl)c2)c(=O)n(-c2ccccc2)n1C	0	-0.2%	-1	-1	0.2	-5.6
Nc1cc(N)nc(SCCOc2ccccc2)n1	5	x	-7	-2	-0.4	0.6
O=c1[nH][nH]c2c1[C@H](c1ccc(F)cc1)O[C@H](CCc1ccccc1)C2	x	1.5%	5	x	-0.3	x
CCOc1ccc(S(=O)(=O)Nc2cc3c(C(=O)OCc4ccccc4)c(C)oc3c3ccccc23)cc1	-29	3.0%	x	x	0.3	x
CC(C)(C)c1nnc(NC(=O)Nc2ccc(Cl)cc2)s1	-6	1.2%	0	-6	0.0	6.9
Cc1ccc(Cl)cc1N1CCN(C(=O)Cc2c(C(=O)O)[nH]c3ccc(Cl)cc23)CC1	14	-1.2%	-6	-6	0.4	-1.9
Cc1nnc(SCC(=O)NNC(=O)C(C)C)[nH]c1=O	-16	-2.4%	10	-9	0.5	1.5
COc1ccc(Nc2c3c(nc4ccccc24)CCCC3)cc1OC	16	-0.2%	-7	-20	2.3	-4.8
CC(C)OC(=O)c1c(N)n(CCCN2CCOCC2)c2nc3ccccc3nc12	-2	-0.7%	-3	-11	-1.3	-2.7
Cc1cc(C)c2c(c1)/C(=C/C(=O)c1ccc(Br)s1)C(=O)N2	-8	-1.3%[38.3 µM]	2	6	-0.3	1.0
CC(=O)Nc1ccccc1NC(=O)C/C(C)=N/NC(=O)c1ccc([N+](=O)[O-])c(Cl)c1	0	-0.1%	-9	6	1.1	2.8
CNC(=O)COC(=O)/C=C/c1ccc(F)cc1	-20	0.1%	0	0	-0.4	2.4
CCN(CC)CCCn1c(C)cc2c(c1=O)C(c1cc(OC)c(OC)cc1OC)C(C#N)=C(N)O2 (configuration not stated)	15	-1.4%	4	-3	-0.2	0.6
CCOC(=O)c1c(NC(=O)CSc2nc3cccnc3n2C)sc(C(C)=O)c1C	20	2.5%	-2	24	-0.5	3.8
COc1cc(C2NC(=O)NC(c3ccccc3)=C2C(C)=O)ccc1OCC(=O)O (configuration not stated)	31	-0.1%[38.3 µM]	4	-6	0.9	-0.8
CCCc1cc(=O)[nH]c(SCC(=O)NCc2ccc3c(c2)OCO3)n1	16	0.4%	-4	2	-0.4	6.2
Cc1ccc(NC(=O)C2CCCN(c3nnc(-n4c(C)ccc4C)s3)C2)cc1Cl (configuration not stated)	25	1.2%	x	x	1.4	x
Cc1cccc(Cn2nc(C(C)(C)C)cc2C(=O)Nc2ccc(F)cc2)c1	3	u	23	-4	1.5	u
O=C(Nc1ccccc1)NC1(C(=O)N2CCN(C(=O)c3ccco3)CC2)CCCCC1	29	-0.1%	u	-14	0.2	-4.1

# Look-ups from the results shown.
# PINK1 modulator result of Cc1ccc(NC(=O)C2CCCN(c3nnc(-n4c(C)ccc4C)s3)C2)cc1Cl (configuration not stated) → 1.2%
# PINK1 modulator result of COc1cc(C2NC(=O)NC(c3ccccc3)=C2C(C)=O)ccc1OCC(=O)O (configuration not stated) → -0.1%[38.3 µM]
# D2 potentiator result of CNC(=O)COC(=O)/C=C/c1ccc(F)cc1 → 0
# Six1-Eya2 blk result of CCN(CC)CCCn1c(C)cc2c(c1=O)C(c1cc(OC)c(OC)cc1OC)C(C#N)=C(N)O2 (configuration not stated) → 4
# TRPML1 blocker result of CCOC(=O)c1c(NC(=O)CSc2nc3cccnc3n2C)sc(C(C)=O)c1C → 20

# Further structures follow.
smiles	TRPML1 blocker	PINK1 modulator	Six1-Eya2 blk	D2 potentiator	TRPML1 agonist	D2 agonist
CCCCC[C@H]1CN(CCCC)C(=O)[C@@H]1CC(=O)NCc1ccccc1	17	2.7%	-1	-6	-0.6	1.3
O=C(O)c1cc2cccc(S(=O)(=O)N3CCOCC3)c2cc1O	9	0.8%	-1	0	-0.4	0.8
COC(=O)Cc1ccc(NC(=S)NCc2ccc(S(N)(=O)=O)cc2)cc1	-2	0.1%	27	9	0.7	1.0
NNC(=O)CSc1ncc(-c2ccccc2)[nH]1	-1	1.2%	-9	-16	2.1	-6.3
O=C(Nc1ccccc1)N(Cc1cccs1)C1CCCC1	1	-2.0%	-20	-16	0.4	-1.7
COc1cccc(NC(=O)C(C#N)Cc2ccncc2)c1 (configuration not stated)	-2	1.6%[38.3 µM]	-12	-12	-0.5	-2.2
COc1ccc(NC(=O)N(C)C[C@H]2Oc3c(NC(=O)Nc4c(C)noc4C)cccc3C(=O)N([C@H](C)CO)C[C@@H]2C)cc1	19	-0.3%	2	x	0.0	0.5
Cc1ccc(S(=O)(=O)N2CCC(=O)N(C(COCc3ccccc3)C(C)C)CC2)cc1 (configuration not stated)	-11	0.0%	3	-6	-1.2	-0.4
CC(C)c1ccc(NC(=O)Cc2cn(C)c3ccccc23)cc1	-4	2.1%	-13	-9	3.1	-4.0
C=CC[n+]1c(/C=C/c2ccc(OC(C)=O)c(OC)c2)ccc2ccccc21	13	4.5%	-2	-4	-0.3	-2.0
COc1ccc(OC)c(S(=O)(=O)N(C)CC(=O)N2CCOCC2)c1	6	-0.4%	-2	-6	0.0	-1.7
COc1ccc(C=CC(=O)c2ccc([N+](=O)[O-])cc2)cc1	3	2.0%	5	0	-0.3	-0.9
CN(C)CC(C)(C)CNc1ccc(S(=O)(=O)N2CCCC2)cn1	11	-0.2%	1	-2	-0.2	0.9
CN(C(=O)c1ccco1)c1nnc(-c2ccc(F)cc2)s1	35	5.0%	0	-1	1.3	-0.8
O=C(COC(=O)c1ncc(Cl)c(Cl)c1Cl)NCc1ccccc1	-5	-0.4%	2	3	1.0	-4.4
CC(C)CC1C(=O)N(Cc2cn(Cc3ccco3)nn2)CCS(=O)(=O)N1Cc1ccc(-c2ccc(Cl)c(Cl)c2)cc1 (configuration not stated)	-4	-0.1%	-4	-6	1.2	-1.8
O=C(O)CC1c2ccccc2C=Cc2ccccc21	8	2.2%	9	-9	-0.2	-1.4
O=C(Nc1ccccc1N1CCCC1)C1CCN(S(=O)(=O)c2ccccc2)CC1	-2	-0.3%	-10	3	-1.2	-4.2
CCOC(=O)c1cc(-c2cccnc2)nn1-c1ccccc1C	x	-0.2%	5	0	x	0.1
Cc1[nH]n2c(=O)c3c(nc2c1-c1ccc(F)cc1)CCCC3	36	0.5%	-6	-17	0.7	-5.8
Cc1nnc(SCC(=O)N2CCCC2)n(N)c1=O	25	-1.3%	12	-4	0.3	-5.6
COc1ccccc1N1CCN(S(=O)(=O)CCNC(=O)CC2CCCCC2)CC1	-4	2.0%	1	-14	0.3	-4.8
COc1ccc(-c2nn(C)c3sc(C(=O)N4CCN(c5ccccc5F)CC4)cc23)cc1OC	-12	-1.0%	x	x	-1.0	x
COc1ccc2c(/C=C/c3cc[n+](C)cc3)c[nH]c2c1	16	u	-6	-14	0.3	-2.9
COC(=O)C1C(OC)=CC(=O)C2CCCCC21 (configuration not stated)	12	1.7%	1	-10	0.6	-2.2
C=CCc1ccccc1OCCNCc1ccccc1	-11	13%	18	-20	0.6	3.1
O=C(O)c1cccc(NCc2cccnc2)c1	-2	-0.2%	10	7	-0.4	0.2
O=C(COc1cccnc1[N+](=O)[O-])c1ccc(Cl)s1	23	-0.7%	-15	5	-0.8	2.3
Cc1ccc(C(=O)N/C(=C\c2ccco2)C(=O)NCCN2CCCCC2)cc1C	-8	-0.7%	-4	-17	1.1	-6.0
CC(C)Nc1nc(C#N)nc(NC(C)C)n1	13	2.9%[38.3 µM]	2	-13	-0.7&-0.9	-1.4
O=C(O)c1ccccc1C(=O)c1ccc2c(c1)N(Cc1ccc(Cl)c(Cl)c1)C(=O)CO2	6	1.3%	-6	-3	-0.7	-4.3
Cc1cc(=O)oc2cc(OCC(=O)Nc3ccc(O)c(C(=O)O)c3)ccc12	29	-3.0%	x	x	0.7	x
Brc1ccsc1-c1csc(-c2ccncc2)n1	38	-0.9%	9	-7	2.3	3.2
